From PubChem
KCNQ2 enhance: KCNQ2 (rat) channel potentiation. B-score at 10 µM. O88943. 310,000 compounds, 0.54% hits. CHO-K1 KCNQ2, FluxOR thallium flux fluorescence; stronger effect = higher value;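 active means fluorescence ratio B-score at least 3 SD of library B-scores, with initial fluorescence B-score within 3 SD, cut at about 5.3 in these data; same plate scores as AID 2156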;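 further: B-score of peak minus minimum over baseline fluorescence ratio after K+ and Tl+ stimulus; positive B-score means potentiation of KCNQ2 with more thallium influx and brighter signal; only the inactives scoring about 0 or higher are listed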
Target sequence (O88943 whole entry, looked up): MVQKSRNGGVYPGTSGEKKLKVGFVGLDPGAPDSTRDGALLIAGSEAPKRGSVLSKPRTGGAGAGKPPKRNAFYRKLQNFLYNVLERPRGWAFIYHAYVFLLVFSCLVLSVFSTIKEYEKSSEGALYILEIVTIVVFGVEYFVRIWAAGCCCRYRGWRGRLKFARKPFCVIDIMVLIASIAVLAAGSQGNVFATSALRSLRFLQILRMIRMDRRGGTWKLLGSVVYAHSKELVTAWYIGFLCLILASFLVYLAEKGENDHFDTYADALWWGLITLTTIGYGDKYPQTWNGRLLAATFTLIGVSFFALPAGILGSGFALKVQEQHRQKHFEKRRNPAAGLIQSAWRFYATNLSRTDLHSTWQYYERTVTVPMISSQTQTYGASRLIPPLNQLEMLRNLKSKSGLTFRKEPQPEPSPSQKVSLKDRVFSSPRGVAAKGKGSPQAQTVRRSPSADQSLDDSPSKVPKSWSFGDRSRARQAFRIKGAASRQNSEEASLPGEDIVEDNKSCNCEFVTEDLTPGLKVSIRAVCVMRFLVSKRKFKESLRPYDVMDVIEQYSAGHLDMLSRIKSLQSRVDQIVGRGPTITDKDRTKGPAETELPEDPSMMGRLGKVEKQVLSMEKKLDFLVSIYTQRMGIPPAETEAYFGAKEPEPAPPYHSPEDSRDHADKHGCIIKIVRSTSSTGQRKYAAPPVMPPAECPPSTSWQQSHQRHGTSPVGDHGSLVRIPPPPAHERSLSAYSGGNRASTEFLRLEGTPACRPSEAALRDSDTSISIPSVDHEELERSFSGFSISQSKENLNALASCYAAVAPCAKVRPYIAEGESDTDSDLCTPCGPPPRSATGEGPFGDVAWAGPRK
KCNQ2 enhance baseline: also measured in KCNQ2 enhance; calls as there; B-score; compound at 10 µM; measured here: initial fluorescence intensity artifact check;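 brightness before thallium and not channel activity; 0 = typical well and far values either way flag optical interference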
Numbers without * were called inactive; · = no result given. Not all compounds are listed; count on the stated rates, not on these rows.

SMILES,KCNQ2 enhance,KCNQ2 enhance baseline
CC(C)N1CC(C(=O)Nc2ccc(Cl)c(Cl)c2)CC1=O (stereo not given),2.16,-0.22
Cc1ccc(C)c(NC(=O)CSc2nnc3n2CCCCC3)c1,0.83,-0.84
CCCOC(=O)c1ccc(NC(=O)c2c(Cl)ccc(Cl)c2OC)cc1,0.13,-0.02
CCOc1ccc(OCC)c(S(=O)(=O)NCc2ccccc2)c1,0.02,2.3
CC1Cc2cc(S(=O)(=O)NCCC(=O)NCc3ccc(F)cc3)ccc2N1C(=O)C1CC1 (stereo not given),0.42,0.74
COc1cc(/C=N/NC(=O)c2cccnc2)ccc1OS(=O)(=O)c1cc(C)ccc1C,1.56,-1.31
CCCNC(=O)CS(=O)(=O)Cc1nc(-c2ccccc2C)oc1C,0.36,0.19
Cc1cccc(-n2nc(C)cc2N)c1,0.16,0.59
COc1ccc(CCNC(=O)Nc2ccc([N+](=O)[O-])cc2)cc1OC,2.88,-0.95
CCCOC(=S)NC(=O)c1sc2ccccc2c1Cl,20*,-0.09*
CCOC(=O)/C=C/CN(C(=O)OC(C)(C)C)S(=O)(=O)N1CC=CC1,0.99,-0.74
O=c1[nH]c2c(c3c1CCCC3)CCCC2,1.03,1.02
CC(=O)Nc1ccc(NC(=O)c2ccc(N(C)S(=O)(=O)c3ccc(C)cc3)cc2)cc1,0.38,-0.01
CC(=O)CCc1c(C)[nH]c2ccccc2c1=O,0.06,-0.74
CN(CCc1ccccn1)C(=S)Nc1ccc(Cl)cc1Cl,0.31,-0.79
COc1ccc(NC(=O)CCN2CCN(S(=O)(=O)c3cc(Cl)ccc3Cl)CC2)cc1,0.02,-0.05
COc1ccc(N2CCN(C(CNC(=O)C(=O)NCCCn3ccnc3)c3cccnc3)CC2)cc1 (stereo not given),0.46,-0.74
C[C@H](NC(=O)OC(C)(C)C)c1nnc(SCC(=O)Nc2cccc(Cl)c2)o1,0.09,-1.34
CC(Oc1ccc(-c2ccccc2)c(F)c1)c1ccn(S(=O)(=O)c2ccc(Br)cc2)n1 (stereo not given),0.66,1.41
CCOCCCNC(=O)c1ccc(OC2CCN(C(C)=O)CC2)c(OC)c1,0.06,2.35
CCCCC1S/C(=N/N=C/c2ccc(OC)cc2)N(Cc2ccc(OC)cc2)C1=O (stereo not given),1.41,-1.59
CN1CCN(CCOc2cccc(Cl)c2)CC1,1.97,-0.96
CCN(CC)c1cccc(OC(=O)c2cccnc2Cl)c1,0.95,-1.49
Cc1ccnc(NC(=O)C2CCN(S(=O)(=O)c3ccc4c(c3)CC(C)N4C(=O)C3CCC3)CC2)c1 (stereo not given),0.05,-0.81
CN(C)/C=C(/C(=O)c1ccccc1)S(=O)(=O)c1ccc(Cl)cc1,0.05,0.07
CCOc1ccc(/C=N/NC(=O)CSc2n[nH]c(=O)[nH]c2=O)cc1OC,1.08,-0.15
CC1=CC(C)(C)N2C(=O)C3(C(C#N)=C(N)Oc4cc(C)oc(=O)c43)c3cccc1c32 (stereo not given),0.44,0.78
C=CCn1c(=O)c2c3c(sc2n2c(Nc4ccccc4)nnc12)CCCC3,0.43,-0.52
CCCC(=O)Nc1cc(C(=O)O)ccc1Sc1ccc(C)cc1,1.14,0.36
CCc1ccc(S(=O)(=O)NC(=S)NC2CCCCC2)cc1,8.86*,-1.35*
CCS(=O)(=O)N1CCC(C(=O)NCCCN2CCCC2)CC1,0.97,-0.64
COc1ccccc1NC(=O)CCc1nnc2ccc(N3CCC4(CC3)OCCO4)nn12,1.33,-1.01
O=C(c1ccc(OC2CCN(C/C=C/c3ccc(F)cc3)CC2)cc1)N1CCCC1,0.21,-0.01
CCOC(=O)c1ccc(-c2ccc3c(=O)c4ccccc4n(C)c3c2)cc1F,1.79,2.45
Cc1ccc2c(c1)N(S(=O)(=O)c1ccc(CN3C(=O)c4cccnc4C3=O)cc1)CCO2,0.32,0.82
Cn1cccc1C(=O)C(=O)Nc1ccc(Cl)cc1,0.62,0.86
O=c1cc(C(F)(F)F)[nH]c(=O)n1C1CCCCC1,0.53,0.77
c1ccc(SCCOCCN2CCc3ccccc3C2)cc1,0.82,-2.22
c1ccc(CCn2nnnc2C(c2cccnc2)N2CCN(c3ccccc3)CC2)cc1 (stereo not given),1.17,-0.62
O=C(Cc1cccs1)Nc1nc(-c2cccnc2)cs1,0.05,0.07
O=C(O)c1cccc(NS(=O)(=O)c2cc(S(=O)(=O)c3ccc(Cl)cc3)ccc2Cl)c1,0.12,-0.01
CCc1nnc(NC(=O)CSc2nc(C)cc(C)c2C#N)s1,1.35,-2.34
COc1ccc(C(=O)Nc2ccccc2C(=O)N/N=C/c2ccccc2OC)cc1,1.43,-0.29
Cc1ccc(S(=O)(=O)NCCC(=O)Nc2cc(S(=O)(=O)N(C)C)ccc2C)cc1C,0.58,-0.03
Cc1cccc(S(=O)(=O)Nc2cccc3c2C(=O)c2ccccc2-3)c1,2.88,0.78
Cc1cc(=O)[nH]c(Nc2ccc(N(C)C)cc2)n1,0.02,-0.49
Cn1c(=O)c2c(ncn2CC(=O)Nc2ccc(N3CCOCC3)cc2)n(C)c1=O,0.68,-0.34
CC1=CC(C)(C)N(C(=O)c2ccccc2)c2ccccc21,-5.57,·
COC(=O)CSc1nc2ccc(C)cc2cc1C#N,0.02,0.08
O=C(CSc1ccccn1)c1ccc(F)cc1,0.64,0.01
CN(C)N1C(N)=C(C#N)C(c2ccc(F)cc2)C2=C1CC(C)(C)CC2=O (stereo not given),0.54,-0.95
COC(=O)Cc1ccc(NC(=S)NCc2ccc(OC)cc2)cc1,0.43,-0.02
CC(=O)N(/N=C1\Sc2ccccc2C1=O)c1ccc(C)cc1C,0.56,0.22
CCc1ccc(OCc2nc(-c3ccccn3)no2)c(Br)c1,0.84,-1.04
NCCOc1ccccc1OCCN,1.11,-0.83
CCC(C(=O)NC1CCCC1)N(C(=O)Cn1nnc(-c2ccc(C)o2)n1)c1ccc(OC)c(OC)c1 (stereo not given),0.01,-0.03
COc1ccc(C(=O)OCC(=O)Nc2ccc3[nH]c(=O)[nH]c3c2)cc1,0.18,-1
CCc1ccccc1N(C(=O)c1cccs1)C1C=CS(=O)(=O)C1 (stereo not given),1.48,0.59
Cn1cccc1/C=N/NC(=O)CSc1nc2ccccc2[nH]1,1.76,-1.34
Cc1ccc(NC(=O)COC(=O)CCc2nc3ccccc3n2-c2ccccc2)c(C)c1,0.9,0.81

(cont.)
SMILES,KCNQ2 enhance,KCNQ2 enhance baseline
COc1ccc2c(c1)CCc1c(C(=O)N3CCOCC3)noc1-2,0.08,0.01
CCOc1ccc(N(CC(=O)Nc2ccccc2C(=O)N2CCOCC2)S(=O)(=O)c2ccc(F)cc2)cc1,1.03,-1.33
COc1cccc(OCc2ccc(Cl)cc2)c1C#N,0.44,-0.7
CN(Cc1ccccc1)c1nc2c(c(=O)[nH]c(=O)n2C)n1C,0.17,-0.21
COc1cccc(C(=O)O/N=C(\N)c2ccc([N+](=O)[O-])cc2)c1OC,0.04,-0.65
COc1ccc(N2CCN(C(=O)C(CCSC)N=C3NS(=O)(=O)c4ccccc43)CC2)cc1 (stereo not given),0.82,0.59
CCN(CC)C(=O)c1sc(NC(=O)c2cccnc2)c(C(=O)OC)c1C,0.88,0.07
O=C(CCN1CCN(CCO)CC1)Nc1ccc(OCc2ccccc2)cc1,1.23,-1.46
O=C(/C=C/NCc1cccnc1)c1ccc(-c2ccccc2)cc1,0.03,-0.2
COc1ccccc1CN1C(=O)[C@@H]2C(CC(N)=O)NC3(C(=O)Nc4c3ccc(Cl)c4C)[C@@H]2C1=O (stereo not given in full),0.13,-1.44
Cc1ccc(OCc2ccc(C(=O)N3CCCC3)o2)cc1C,1.01,-1.19
O=C(O)C1CCN(C(=O)c2ccc3c(c2)OCO3)CC1,0.27,-0.17
CCN(C(=O)COc1cccnc1[N+](=O)[O-])C1CCS(=O)(=O)C1 (stereo not given),0.36,-0.06
Cc1ccc(-c2nc(CSCC(=O)N3CCOCC3)c(C)o2)cc1,0.46,0.69
COc1ccc2oc(=N)c(C(=O)NCc3ccccc3)cc2c1,1.98,-1.66
Cn1ncc2c(Nc3cc(Cl)cc(Cl)c3)ncnc21,0.99,-0.37
Cc1ccc(SCCC(=O)Nc2ccccc2C(=O)NC2CCCCC2)cc1,1.13,0.28
COCCCN(C(=O)CSCc1ccc(C)cc1)c1c(N)n(Cc2ccccc2)c(=O)[nH]c1=O,0.64,-2.6
N/C(=N\OC(=O)C1CCCCC1)c1ccncc1,1.51,0.16
Cc1ccc(C(OCC(O)CN2CCCCC2CO)c2ccccc2)cc1 (stereo not given),0.03,0.93
Cc1noc(C)c1COc1ccc(C(=O)OCC(=O)NC(=O)C2COc3ccccc3O2)cc1 (stereo not given),0.24,0.11
Cc1ccc(S(=O)(=O)N2CCN(CC(=O)N3CCOCC3)CC2)cc1,0.05,-0.91
CCOC(=O)N/N=C/C=C/c1ccccc1,0.05,-0.4
Cc1ccc(NC(=O)CSCC#N)cc1Cl,1.3,1.43
COc1cc(NC(=S)N2CCN(C/C=C/c3ccccc3)CC2)cc(OC)c1,0.85,-0.01
COc1ccc(-n2c3c(c(=O)[nH]c2=O)C(NC(=O)c2ccncc2)(C(F)(F)F)C(=O)N3)cc1 (stereo not given),1.32,-2.57
CCC1(CC)Cc2ccccc2-c2nc(CN3CCOCC3)[nH]c(=O)c21,1.79,-1.06
Clc1nc2ccccc2cc1/C=N/Nc1nc2ccccc2[nH]1,1.25,0.02
Nc1nnc(SCC(=O)NC2CCCc3ccccc32)s1 (stereo not given),0.45,0.31
CS(=O)(=O)N1CCC(NC(=O)Cc2ccccc2)CC1,0.7,1.47
O=C(Nc1cccc2c1C(=O)NC2=O)c1cccc(N2C(=O)CCC2=O)c1,0.65,-1.67
Cc1ccc(Nc2nc(-c3ccncc3)cs2)cc1,0.21,-2.06
C=CCOn1c(=O)c(C)[n+]([O-])c2ccccc21,2.13,-1.25
Cc1cc(C2(c3ccc(O)c(C)c3)OC(=O)c3ccccc32)ccc1O,3.4,0.82
CC(=NCCCn1ccnc1)c1c(-c2ccccc2)[nH]n(-c2nc3ccccc3s2)c1=O,0.27,-0.13
Cc1ccsc1C(=O)NCc1ccccc1Cl,0.42,-0.61
Cn1c(=O)c2c(ncn2CC(=O)N(Cc2ccccc2)c2ccccn2)n(C)c1=O,1.86,-2.66
C1CCN=C(Nc2nc3c(s2)CCCC3)CC1,0.24,-0.26
COC(=O)Cn1cc(S(=O)(=O)NCc2ccc(C)cc2)c2cc([N+](=O)[O-])ccc21,1.35,-1.88
Cc1cc(C)n(CC(=O)NC2CCCc3c2cnn3-c2ccccc2F)n1 (stereo not given),1.36,1.77

Entries from the list above that have a cyano group (6):
SMILES,KCNQ2 enhance,KCNQ2 enhance baseline
CC1=CC(C)(C)N2C(=O)C3(C(C#N)=C(N)Oc4cc(C)oc(=O)c43)c3cccc1c32 (stereo not given),0.44,0.78
CCc1nnc(NC(=O)CSc2nc(C)cc(C)c2C#N)s1,1.35,-2.34
COC(=O)CSc1nc2ccc(C)cc2cc1C#N,0.02,0.08
CN(C)N1C(N)=C(C#N)C(c2ccc(F)cc2)C2=C1CC(C)(C)CC2=O (stereo not given),0.54,-0.95
COc1cccc(OCc2ccc(Cl)cc2)c1C#N,0.44,-0.7
Cc1ccc(NC(=O)CSCC#N)cc1Cl,1.3,1.43

Next section.
SMILES,KCNQ2 enhance,KCNQ2 enhance baseline
CCOCCCNC(=S)N1CCCC(c2nc3ccc(C)cc3[nH]2)C1 (stereo not given),0.01,-0.35
CC(=O)/C(C=Nc1noc(C)c1Br)=C(\C)O,0.43,-3.23
CC(=O)c1sc(NC(=O)C2=NN(c3ccccc3)C(=O)CC2)nc1C,1.75,-0.2
CCOC(=O)C1(Cc2ccc(OC)cc2)CCN(C(=O)CCc2cccnc2)CC1,0.01,-0.89
Cc1nn(Cc2ccccc2)c(C)c1NC(=O)CSc1nc2sc3c(c2c(=O)n1C)CCC3,1.25,0.04
CC(C)c1nc(-c2ccc([N+](=O)[O-])cc2)cs1,0.7,0.07
COC(=O)c1sc2nc(C)cc(C)c2c1N,1.84,-0.08
CC(C)(C)c1cc2nc(N)nc(N)n2n1,1.64,-0.92
c1ccc2sc(SN3CCOCC3)nc2c1,0.15,0.66
COc1ccccc1NC(=O)C(=O)NCc1ccccc1Cl,0.1,-3.14
N#Cc1c(NC(=O)C2CC2)sc2c1CCCCC2,0.1,-0.01
CC(=O)N1CCN=C1SCc1ccccc1,0.39,0.82
CCOCCCNC(=O)CN1C(=O)C(CC)Oc2ccccc21 (stereo not given),0.19,1.08
Cn1c(=O)n(C)c2cc([N+](=O)[O-])c(N3CCN(C(=O)c4cccc(F)c4)CC3)cc21,0.1,1.52
Cn1c(SCc2cccnc2)nnc1-c1c[nH]c2ccccc12,1.59,-2.72
COc1cccc(NC(=O)CN2CCN(c3nc(-c4cccc(OC)c4)cs3)CC2)c1,0.54,2.16
NC(=O)CC(NC(=O)c1ccccc1)c1ccc(NCc2ccc(F)c(F)c2)c([N+](=O)[O-])c1 (stereo not given),1.14,1.71
COc1ccc(CCN(C)C(=O)c2cc(S(=O)(=O)N3CCCCCC3)ccc2OC)cc1OC,0.54,0.84
